Six1-Eya2 inh: qHTS Assay for Inhibitors of the Six1/Eya2 Interaction; Homeobox protein SIX1 (Homo sapiens) + Protein phosphatase EYA2 (Homo sapiens), …; AlphaScreen GST-Six1/His-Eya2 binding, biochemical; active compounds read low; control for the full effect not named in the record; activity change, % (concentration not given with the values); actives 0.56% (n = 360,000); AID 651725, 2012; in the data active = activity change below about -65%; inconclusive = about -30% to -65%; inactive = above about -30%; also: % is scaled to controls: 0 for no effect and ±100 for the full control effect
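AlphaScreen with GST-Six1 and His-Eya2 (5X mix: 250 nM and 500 nM), glutathione donor and nickel acceptor beads; buffer 50 mM Tris pH 8.0, 300 mM NaCl, 1 mM TCEP; 1 h at 37 C in the dark.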
TRPML1 ag: qHTS for Agonists of the Human Mucolipin Transient Receptor Potential 1 (TRPML1); TRPML1-expressing cells, Ca2+ dye fluorescence, FDSS; host cell line not named in the record; reference of the full effect not given here; activation, % (test concentration not listed); actives 0.12% (n = 410,000); in the data active = activation above about 50%; inconclusive = about 30% to 50%; inactive = below about 30%; also: 0% is about no effect; the text of the record puts the active cut at 80%
Target sequence (Q9GZU1 whole entry, looked up): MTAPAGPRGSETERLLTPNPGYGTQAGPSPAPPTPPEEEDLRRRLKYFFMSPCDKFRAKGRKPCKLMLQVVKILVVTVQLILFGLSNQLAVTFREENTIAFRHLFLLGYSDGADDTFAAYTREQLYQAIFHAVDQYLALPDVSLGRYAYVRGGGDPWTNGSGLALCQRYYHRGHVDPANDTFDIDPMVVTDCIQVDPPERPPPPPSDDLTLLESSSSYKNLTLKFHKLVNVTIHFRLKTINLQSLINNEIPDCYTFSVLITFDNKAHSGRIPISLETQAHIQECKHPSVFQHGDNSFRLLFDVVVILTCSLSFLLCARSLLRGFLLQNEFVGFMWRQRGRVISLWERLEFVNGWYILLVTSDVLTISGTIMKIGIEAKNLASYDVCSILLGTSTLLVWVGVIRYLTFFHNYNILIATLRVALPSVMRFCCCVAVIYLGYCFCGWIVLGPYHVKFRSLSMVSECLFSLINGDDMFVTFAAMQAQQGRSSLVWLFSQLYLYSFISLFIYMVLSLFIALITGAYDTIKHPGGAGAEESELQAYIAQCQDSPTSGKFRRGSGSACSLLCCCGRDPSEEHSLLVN
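Kinetic FDSS Ca2+ read in Tet-induced TRPML1-DL cells (ABD Ca8 dye plus quencher, 45-90 min RT loading): baseline, then compound, then 110 s agonist window; EC80 agonist 54-4 at 4uM final added afterwards for a 110 s antagonist window.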
CtBP-E1A inh: qHTS Assay for Inhibitors of the CtBP/E1A Interaction; CtBP / adenovirus E1A interaction (AlphaScreen); AlphaScreen GST-E1A/His-CtBP binding, 1536-well; active compounds read low; control for the full effect not named in the record; activity change, % (no concentration beside the values); actives 0.49% (n = 340,000); AID 651724, 2012; in the data active means activity change below about -65%; inconclusive means about -30% to -65%; inactive means above about -30%; also: % is scaled to controls: 0 for no effect and ±100 for the full control effect
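In 5 uL wells, 23 nL compound meets equimolar GST-E1A and His-CtBP (5X stock 125 nM each) for 2 h, 37 °C. Beads (5X, 50 ug/mL) then 1 h, 37 °C, dark.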
D2 PAM: Beta-Arrestin HTS for Positive Allosteric Modulators of the Human D2 Dopamine Receptor: Potentiators. DiscoveRx D2 beta-arrestin cells, luminescence, 90 min; 100% = 57 uM dopamine signal. potentiation, % (concentration not given with the values). actives 0.23% (n = 360,000). AID 624464, 2012; active = potentiation of 50% or more; inconclusive = 30% to 50%; inactive = 30% or less;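 also: compound concentration not given in the record; tested on top of an EC20 dose of dopamine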
Target sequence (P14416 whole entry, looked up): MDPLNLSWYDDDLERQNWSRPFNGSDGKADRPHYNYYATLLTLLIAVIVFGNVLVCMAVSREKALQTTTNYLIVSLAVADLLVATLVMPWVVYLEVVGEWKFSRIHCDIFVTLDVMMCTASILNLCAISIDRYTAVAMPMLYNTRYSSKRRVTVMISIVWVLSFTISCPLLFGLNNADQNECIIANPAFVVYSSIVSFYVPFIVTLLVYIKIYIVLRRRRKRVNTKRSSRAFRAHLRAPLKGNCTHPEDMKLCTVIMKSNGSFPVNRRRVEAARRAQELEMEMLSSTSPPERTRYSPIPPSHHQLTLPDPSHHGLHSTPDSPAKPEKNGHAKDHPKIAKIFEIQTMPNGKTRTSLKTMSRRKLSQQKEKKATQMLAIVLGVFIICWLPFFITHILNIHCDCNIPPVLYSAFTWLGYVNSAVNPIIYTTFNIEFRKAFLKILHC
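D2 cells co-treated with compound plus 50 nM dopamine (EC20) for 90 min at 37 deg C to detect potentiation. Beta-arrestin recruitment was read as enzyme-fragment luminescence after 1 h at ambient temperature. Full response was set by 57 uM dopamine.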
PINK1 modulator: A Quantitative High throughput Screen to Identify Chemical Modulators of PINK1 Expression. PINK1 immunofluorescence, high-content cytometry, 24 h. AID 624263, 2012. Potency, µM (series often up to 76.6 µM), for the others: at the highest dose activation (PINK1 increase), hits mostly activators. actives 0.2% (n = 410,000); active = well fitted activation curve with a large enough effect; inconclusive = small, poorly fitted or top-dose-only effect; inactive = flat fitted curve, though single readings scatter; cell line not stated here;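 also: potency is read from the fitted curve at half-maximal effect; % of control where 0% means no effect; nearly all actives have a fitted effect of over 65% in size; a mitochondrial uncoupler was the plate control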
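Stable cell line treated 24 h with compounds at 5 concentrations (CCCP controls), then fixed and immunostained for PINK1 plus nuclear and cell stains; PINK1 immunofluorescence quantified by laser-scanning microplate cytometry.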
D2 agonist: Beta-Arrestin HTS for Positive Allosteric Modulators of the Human D2 Dopamine Receptor: Agonists; AID 624465, 2012; D(2) dopamine receptor (Homo sapiens), P14416; DiscoveRx PathHunter D2 beta-arrestin, luminescence, 90 min; 100% = 57 uM dopamine signal; activation, % (no concentration beside the values); actives 0.084% (n = 360,000); in the data active = activation above about 40%; inconclusive = about 15% to 40%; inactive = below about 15%; also: compound concentration not given in the record; the text of the record calls up to 30% inactive
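Agonist mode: compounds alone added to overnight-plated D2 PathHunter cells for 90 min at 37 C, with 57 uM final dopamine (EC100) defining full response. Beta-arrestin recruitment detected by chemiluminescent reagent, read after 1 h at ambient temperature.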
The depositor's hits bear a star; ? = inconclusive; . = no result given; [ ] = another dose, or the depositor's remark.

SMILES	Six1-Eya2 inh	TRPML1 ag	CtBP-E1A inh	D2 PAM	PINK1 modulator	D2 agonist
CC(C)C(C)N(Cc1ccc(C(=O)O)cc1)C(=O)c1ccc2ccccc2n1 (configuration not stated)	5.8	-0.6	9.7	-2.6	-0.8%	-0.5
O=C(Nc1ccccc1)c1ccc(S(=O)(=O)NCc2cccnc2)cc1	-25.4	-1.4	0.0	-10.3	1.2%	-3.3
Cc1ccc(Cl)cc1NC(=O)COC(=O)c1ccccc1O	6.3	0.5	-4.5	-3.7	1.4%	-5.5
CN(C(=O)Nc1cnccc1C(F)(F)F)C1CCCCC1	-4.0	0.0	-7.4	-3.5	-2.2%	0.5
CCOC(=O)C1=CN(Cc2cccc(F)c2)S(=O)(=O)N(CC)C1c1ccc(C(F)(F)F)cc1 (configuration not stated)	2.6	-0.3	7.3	.	1.0%	-1.4
Cc1cc2nc(CCl)cc(=O)n2[nH]1	-3.8	0.9	4.5	-3.5	-0.1%	4.7
CCOc1ccccc1C(=O)NCCNC(=O)c1ccccc1OCC	-22.0	0.2	7.9	2.2	1.0%	-3.0
O=C(CN1CCOCC1)Nc1nc(-c2ccc3c(c2)CCN3S(=O)(=O)c2ccccc2)cs1	-14.0	-0.5	-6.3	2.7	0.7%	3.6
CCOc1ccc(CCNC(=O)COC(=O)c2nccnc2N)cc1OCC	-0.9	0.0	-2.6	-2.9	2.5%	3.1
CCOC(=O)CC(/C(C)=N\O)c1ccccc1 (configuration not stated)	4.4	-1.3	5.6	3.9	-2.5%	1.2
COc1cccc(C2=NOC(C(=O)Nc3cccnc3)C2)c1 (configuration not stated)	2.7	1.3	3.7	-2.7	8.6%[38.3 µM]	0.7
CCOc1cc(C2C(C(C)=O)=C(C)Nc3ncnn32)ccc1O (configuration not stated)	2.0	-0.8	.	3.4	0.8%	-1.9
O=C(N/N=C/CCc1ccccc1)c1ccc(CN2c3cccc4cccc(c34)S2(=O)=O)cc1	10.9	0.9	4.4	12.2	0.9%	-1.3
COc1ccc(NC(=S)N2CCN(C(=O)C3CCCO3)CC2)c(OC)c1 (configuration not stated)	0.9	-0.4	0.2	-7.0	1.7%	-4.9
CC(OC(=O)CCOc1ccccc1)C(=O)NC1CC1 (configuration not stated)	-1.0	-0.3	0.6	-2.7	0.3%	-3.3
Cc1cccc(NC(=O)COC(=O)C2C3CC4OC(=O)C2C4C3)c1C (configuration not stated)	8.4	1.4	-2.2	-1.5	-2.1%	-1.5
CCOC(=O)C1(CCCc2ccccc2)CCN(C(=O)c2cnc(C)cn2)CC1	-0.1	0.4	0.0	-3.8	-1.8%	-0.9
CC(C)(C)c1cc(NCc2ccccn2)n2ncc(-c3ccc(Cl)cc3)c2n1	-2.2	3.0	.	8.3	15.9%	0.5
CC1(C)CC(=O)C(C(C2=C(O)CC(C)(C)CC2=O)c2ccco2)C(=O)C1 (configuration not stated)	-10.4	-0.5	1.4	-2.8	-0.7%	0.8
O=C(CCCC1=NS(=O)(=O)c2ccccc2N1)N1CCN(c2ccc([N+](=O)[O-])cc2)CC1	-11.4	-0.9	-0.8	-15.6	10.9%	-8.0
Cc1nc2ccccc2c(=O)n1NC(=O)c1ccco1	2.6	1.9	6.3	-11.7	-2.9%	-1.5
Cc1onc(-c2ccccc2Cl)c1C(=O)NC(=S)Nc1ccc(C(C)(C)C)cc1	4.4	-0.8	.	-16.3	1.5%	-5.8
COc1ccc(CNS(=O)(=O)c2ccc(-c3ccc(=O)[nH]n3)o2)cc1	2.1	1.1	.	-4.8	1.0%	-1.3
Cc1nnc(SCc2cnc(-c3ccccc3)o2)[nH]c1=O	3.6	0.6	-0.7	-3.6	-0.8%	-0.5
COC(=O)/C(=C\Nc1ccc(OC)cc1)NC(=O)c1ccc(Cl)cc1Cl	-7.2	-0.3	-0.3	-2.3	5.7%	2.0
O=C(Cc1ccccc1)Nc1ccccc1C(=O)N1CCCCCC1	18.7	0.5	9.7	2.6	0.0%	0.8
O=C(c1ccc(Br)cc1)C1CCc2occc2C1=O (configuration not stated)	5.2	1.9	2.8	6.9	4.4%	0.3
C[C@H]1CN([C@@H](C)CO)C(=O)CCCn2nncc2CO[C@H]1CN(C)C(=O)C1CCCCC1	7.8	-0.5	-3.0	3.1	-0.3%	-1.1
CCc1nc2ccc(C(=O)NCCC(C)C)cn2c1N(CC)CCN(C)C	1.8	-0.5	0.7	-9.1	-1.2%	-1.2
CCc1cc(=O)oc2c(C)c(OCC(=O)N3CCC[C@@H]3C(=O)O)ccc12	2.3	.	0.1	-18.8	0.6%	-2.1
COC(=O)Cc1ccc(NC(=S)NCCSc2ccc(C)cc2)cc1	9.0	3.4	.	-10.9	-0.4%	8.3
COc1ccc(-n2c(=O)[nH]c3cc(C(=O)NCCc4ccc(OC)c(OC)c4)ccc3c2=O)c(OC)c1	-10.5	0.9	-4.4	2.0	2.1%	-2.2
COc1ccc2cc(C#N)c(N3CCN(C(=O)c4ccccc4C)CC3)nc2c1	5.2	0.6	3.5	2.2	15.4%	10.5
COc1ccc(NC(=O)CN(C)C(=O)CSCC(=O)Nc2ccc(C)cc2)cc1	3.9	-0.6	0.3	10.6	-3.6%	-2.6
O=C(COC(=O)/C=C/c1cccc(C(F)(F)F)c1)NC(=O)NCc1ccco1	-1.3	4.9	-2.7	-36.6	1.9%	-7.0
C[C@@H]1CN([C@H](C)CO)C(=O)c2cc(NS(=O)(=O)c3cccs3)ccc2O[C@H]1CN(C)Cc1ccccc1	3.3	-0.1	0.8	-12.4	1.0%	-3.7
O=C1c2ccccc2C(=O)c2c1ccc(O)c2O	-65.1*	2.4	?	-12.1	0.5%	-4.5
O=C(c1ccc(NS(=O)(=O)c2ccc(F)cc2)cc1)N1CCOCC1	4.3	0.0	3.5	-17.0	-0.9%	0.2
Cc1c(NC(=O)CSc2nnnn2-c2ccc(C(=O)O)cc2)c(=O)n(-c2ccccc2)n1C	5.1	0.7	.	-4.6	-0.5%	-0.5
COc1ccc(CNc2nc3nc(C)c(Cl)c(C)n3n2)cc1OC	-0.7	0.6	4.7	-12.9	-1.8%	-3.0
O=C(C=C1CCN(c2ncc(C(F)(F)F)cc2Cl)CC1)NNC(=O)Nc1ccccc1	-2.3	0.3	0.0	9.1	-1.4%	-1.2
Cc1ccc(S(=O)(=O)N(C)C)cc1NC(=O)C(C)OC(=O)C1CCCC1 (configuration not stated)	-2.5	-0.4	6.1	-14.3	1.4%	-2.2
CC(C)(C)c1csc(NC(=O)Cc2ccc(S(=O)(=O)N3CCOCC3)s2)n1	-3.2	0.9	-1.2	-1.1	10.0%	5.0
Cc1c(NC(=O)c2cc(-c3ccc4c(c3)OCO4)on2)c(=O)n(-c2ccccc2)n1C	3.5	1.0	2.7	-5.1	14.8%[38.3 µM]	-2.0
O=C(CSc1nc2cc(Cl)ccc2o1)Nc1ccc(N2CCOCC2)cc1	-4.7	-0.1	-6.5	-9.9	5.7%[38.3 µM]	-2.3
O=C(N/N=C/C=C\c1ccccc1[N+](=O)[O-])c1cccnc1	-4.7	0.4	-15.5	-0.2	-0.2%	-5.1
Cc1ccccc1NC(=O)Nc1nnc([C@@H]2C[C@H](O)[C@@H](CO)O2)s1	8.5	-0.2	1.5	-0.5	-0.5%	1.7
CCCOc1cccn2c(N(C=O)Cc3ccc(OC)cc3)c(CC)nc12	-0.1	-0.2	-4.2	1.3	5.4%	2.4
O=C1OC(N2C(=O)CC[C@H]2C(=O)Nc2cccc(F)c2)c2ccccc21 (some centres not stated)	-0.5	.	26.2	-27.0	0.0%	-4.8
COc1ccc(-n2c(Cc3cc(=O)[nH]c(=O)[nH]3)nnc2SCC(=O)NC2CCCC2)cc1	28.1	-0.1	0.0	0.4	1.8%	-0.9
Cc1ccc(OCC(O)Cn2c(=N)n(Cc3ccccc3)c3ccccc32)cc1 (configuration not stated)	-7.7	-0.4	0.2	-38.2	-1.3%	-6.1
CCn1c(NC(=O)c2cccs2)nc2ccccc21	-6.1	-0.4	-6.8	-9.6	-19.0%[38.3 µM]	-4.0
Cc1cccc(/C=N/NC(=O)c2c(-c3ccccc3)noc2C)c1O	-19.5	-0.1	?	0.4	0.1%	-3.6
O=C(Nc1ccc2c(c1)OCCO2)C1c2ccccc2OCC(=O)N1CC(F)(F)F (configuration not stated)	8.9	-0.4	-5.3	.	-0.7%	.
O=C(NN1CCOCC1)c1cccc(F)c1	5.0	-0.2	.	-8.7	0.7%	-2.4
c1ccc(-n2nnnc2SCc2cccc3nsnc23)cc1	1.5	4.3	6.3	1.3	-1.7%	-4.4
Cc1c(C(=O)Nc2ccccc2)oc2c1C(=O)CC(C)(C)C2	2.1	3.2	0.5	4.5	-1.4%[38.3 µM]	8.5
CCOC(=O)/C(N=Nc1ccc(F)cc1)=C(/O)c1ccc([N+](=O)[O-])cc1	-6.0	0.9	-6.8	-0.9	3.2%	2.5
CC(=O)Nc1ccccc1NC(=O)C/C(C)=N/NC(=O)c1ccncc1	-2.9	2.4	-8.2	-3.3	-0.4%	-3.1
Cc1cc(OCCN2CCOCC2)ccc1[N+](=O)[O-]	10.9	0.7	-4.7	-12.1	1.1%	-2.4
Further records follow:
SMILES	Six1-Eya2 inh	TRPML1 ag	CtBP-E1A inh	D2 PAM	PINK1 modulator	D2 agonist
O=C(NCCc1ccc(Cl)cc1Cl)c1cc([N+](=O)[O-])c[nH]c1=O	4.0	4.2	-21.5	-3.1	?	-2.1
Cc1cccc(Nc2nnc(SCC(=O)c3ccc(Br)s3)s2)c1C	-13.5	0.9	-2.9	-10.6	-1.5%	-4.0
Cc1cc(C)c(C)c(S(=O)(=O)NC2CCN(Cc3ccccc3)CC2)c1C	-11.2	-0.1	-9.8	-29.8	3.1%	-0.5
CSc1nnc(SCC(=O)Nc2ccc3[nH]c(=O)[nH]c3c2)s1	-2.3	0.5	-11.8	-1.1	4.0%	-3.3
O=S(=O)(c1cc(Cl)ccc1Cl)N1CCc2ccccc21	-3.0	.	.	1.7	2.3%	-1.1
CC(=O)c1cc2c(cc1NS(=O)(=O)c1ccccc1F)OCO2	-5.4	1.7	.	-1.6	0.5%	-4.2
COC(=O)C1C(=O)c2c([nH]c(C(=O)OCC3CCCO3)c2C)CC1C (configuration not stated)	-1.0	0.1	0.0	-3.3	1.0%	-5.4

Profiles from above. Values in the order: Six1-Eya2 inh | TRPML1 ag | CtBP-E1A inh | D2 PAM | PINK1 modulator | D2 agonist
Profile of Cc1cccc(Nc2nnc(SCC(=O)c3ccc(Br)s3)s2)c1C : -13.5 | 0.9 | -2.9 | -10.6 | -1.5% | -4.0
Profile of COC(=O)C1C(=O)c2c([nH]c(C(=O)OCC3CCCO3)c2C)CC1C (configuration not stated) : -1.0 | 0.1 | 0.0 | -3.3 | 1.0% | -5.4
Profile of O=C(NCCc1ccc(Cl)cc1Cl)c1cc([N+](=O)[O-])c[nH]c1=O : 4.0 | 4.2 | -21.5 | -3.1 | ? | -2.1
Profile of CSc1nnc(SCC(=O)Nc2ccc3[nH]c(=O)[nH]c3c2)s1 : -2.3 | 0.5 | -11.8 | -1.1 | 4.0% | -3.3
